# Screens deposited in PubChem BioAssay by several laboratories.
# INS promoter inh – TRM-6 insulin promoter activity inhibition; TRM-6 cells (human fetal islet line), insulin promoter-eGFP reporter, imaging; reporter expression induced with tamoxifen; AID 1273; inhibition, % at 2 µM; actives 0.9% (n = 130,000);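 active = inhibition above the mean plus 3 SD, with well images judged a real hit on visual review, cut at about 60% in these data, passing the limit was not always enough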
# PKD1 kinase inh – blocks activity of human protein kinase D1 | PKD1 kinase fluorescence polarization assay | Q15139 | inhibition, %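 (about 10 µM by stock and volumes)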 | actives 0.056% (n = 200,000);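 active = inhibition of 50% or more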;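 also: controls were vehicle for no effect and a reference inhibitor for full effect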
# GALR2 agonist – activates the human galanin receptor 2; O43603; GALR2-expressing cells, agonist activation read-out; activation, %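 (tested at 5 µM)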; actives 0.48% (n = 140,000); AID 803;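 active = above mean plus 3 SD of all compounds, about 5% in these data, not always enough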;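 also: 0% = vehicle buffer wells and 100% = reference agonist at full effect; tested in CHO reporter cells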
# Target sequence (O43603 whole entry, looked up): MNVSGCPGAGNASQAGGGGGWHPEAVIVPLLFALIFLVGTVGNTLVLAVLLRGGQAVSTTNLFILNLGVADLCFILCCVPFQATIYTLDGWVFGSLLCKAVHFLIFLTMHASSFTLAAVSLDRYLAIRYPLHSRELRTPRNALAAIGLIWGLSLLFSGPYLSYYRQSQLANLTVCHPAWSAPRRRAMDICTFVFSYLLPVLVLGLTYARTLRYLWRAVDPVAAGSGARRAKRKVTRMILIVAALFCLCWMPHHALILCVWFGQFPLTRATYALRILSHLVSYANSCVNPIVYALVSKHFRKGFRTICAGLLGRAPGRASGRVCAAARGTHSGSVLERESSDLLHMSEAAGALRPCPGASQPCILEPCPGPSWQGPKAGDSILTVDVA
# HSV augment – HSV replication enhancement | maximum fold increase | actives 0.005% (n = 220,000) | HSV replication augmentation in cells, fold increase;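 active = peak rise of 1.5-fold or more in the series; tested in PC3 cells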;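 also: first round at 10 µM; read as green reporter fluorescence; hits show the peak of a series up to 25 µM; 1 = signal of infected wells without compound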
# RGS16-Gao HTS – modulates binding between human RGS16 and Galphao | actives 0.38% (n = 220,000) | bead-based flow cytometry RGS16-Galphao binding, fluorescence; actives lie on both sides | O15492+P09471 | binding response (% of control), % at 10 µM;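 active = below 25% or above 175%, edge rows of some plates excepted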;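 also: Galphao activated by GDP with aluminum fluoride before binding; 100% = wells without compound and 0% = beads without RGS; some results beyond the cut were filed as inactive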
# Target sequence (O15492 whole entry, looked up): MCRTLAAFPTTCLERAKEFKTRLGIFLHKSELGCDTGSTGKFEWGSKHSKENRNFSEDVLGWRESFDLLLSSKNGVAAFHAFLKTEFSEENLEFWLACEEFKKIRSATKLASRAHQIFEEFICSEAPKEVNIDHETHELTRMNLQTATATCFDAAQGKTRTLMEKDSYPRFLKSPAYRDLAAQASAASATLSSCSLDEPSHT
# Target sequence (P09471 whole entry, looked up): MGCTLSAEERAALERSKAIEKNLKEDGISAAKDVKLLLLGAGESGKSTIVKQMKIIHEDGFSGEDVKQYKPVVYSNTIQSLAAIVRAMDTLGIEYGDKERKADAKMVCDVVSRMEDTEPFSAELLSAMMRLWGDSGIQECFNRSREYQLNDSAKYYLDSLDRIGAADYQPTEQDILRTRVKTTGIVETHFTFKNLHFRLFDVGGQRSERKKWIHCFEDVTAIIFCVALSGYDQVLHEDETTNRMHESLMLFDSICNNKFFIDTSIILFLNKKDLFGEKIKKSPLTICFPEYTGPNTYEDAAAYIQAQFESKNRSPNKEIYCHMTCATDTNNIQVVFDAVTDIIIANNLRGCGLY
# INS promoter inh cell count – recorded beside INS promoter inh, whose call it bears; normalized cell count, %; measured here: cell count, toxicity; reference of the scale not given here;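 cells exposed to compound for 48 h; stained nuclei by imaging scaled within each plate; lower means fewer cells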
# HSV augment primary fold – recorded beside HSV augment, whose call it bears; fold increase; compound at 10 µM; measured here: primary screen fold increase 10 uM; tested in PC3 cells;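 GFP signal in the first replicate; 1 = infected wells without compound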
# Numbers without * were called inactive; i = inactive; / = no result given.
SMILES,INS promoter inh,INS promoter inh cell count,PKD1 kinase inh,GALR2 agonist,HSV augment,HSV augment primary fold,RGS16-Gao HTS
CCOC(=O)c1ccc(COc2ccc(C(C)C)cc2)o1,/,/,-9,/,i,1,97
Cc1n[nH]c(C)c1CCNCc1ccc(OCC(O)CN2CCCCC2)cc1 (configuration not stated),25,119,2,/,i,0.91,108
Cc1noc(C)c1CCC(=O)N1CCCC(CCC(=O)NCc2ccc(F)c(F)c2)C1 (configuration not stated),/,/,3,/,i,0.98,100
CNC(=O)CN1C(=O)c2ccccc2S1(=O)=O,/,/,-3,-1.1,i,0.8,92
COc1cc(C(=O)Nc2ccc(S(=O)(=O)NC(C)C)cc2)cc(OC)c1OC,21,70,2,-1.5,i,0.64,108
O=C(Nc1nc(-c2cccnc2)cs1)c1ccc(S(=O)(=O)N2CCOCC2)cc1,/,/,-27,-0.9,i,1.1,100
COC(=O)c1cc2sccc2n1Cc1nc(-c2ccc(OC)cc2)oc1C,/,/,0,-0.4,i,0.77,97
CCc1nc(C)cc(N)c1OCc1ccccc1,/,/,-9,-2.5,i,0.87,108
Fc1ccc2c(c1)[C@H]1OCC[C@H]1[C@@H](c1ccco1)N2,10,117,-11,-2.5,i,0.88,100
CCCCC(=O)NC1(C(F)(F)F)C(=O)Nc2c1c(=O)[nH]c(=O)n2Cc1ccco1 (configuration not stated),54,88,-9,0.0,i,1,97
Cc1cc(/C=C(/C#N)c2nc3ccccc3[nH]2)c(C)n1-c1cc(C(=O)O)cc(C(=O)O)c1,/,/,9,/,/,/,101
O=C(C1CCC(C(=O)N2CCc3ccccc32)CC1)N1CCc2ccccc21 (configuration not stated),65,59,7,-0.1,i,0.89,99
COC(=O)c1ccc(NC(=O)[C@H](C)NC(N)=O)cc1,/,/,/,/,i,1.1,109
Cc1ccc(S(=O)(=O)CC(=O)c2ccccc2)cc1,/,/,-8,-3.8,/,/,100
CN(CC(N)=O)S(=O)(=O)c1ccc(F)cc1,/,/,-5,-0.6,i,0.95,101
O=C(Nc1ccc(S(=O)(=O)N2CCc3ccccc3C2)cc1)C1CCCO1 (configuration not stated),38,116,-7,-1.1,i,1.1,101
CCN(CC)CC(O)COc1ccc2c(c1)OCO2 (configuration not stated),/,/,3,-0.9,i,1,100
CC(C)CN1C(=O)c2ccc(NC(=O)c3ccco3)cc2C1=O,/,/,6,/,i,0.96,101
Cc1c([N+](=O)[O-])c(C(=O)Nc2ccc3c(c2)OCCO3)nn1C,40,108,1,-2.9,i,0.93,98
C=C(C)CNC(=S)N/N=C/c1ccccc1OCC(=O)O,17,74,2,/,i,1,108
CCCCn1c(NC(=O)c2ccccc2)c(C#N)c2nc3ccccc3nc21,/,/,2,16*,/,/,102
CC(=O)N1CCN(c2cc3c(cc2F)c(=O)c(C(=O)O)cn3C2CC2)CC1,67,57,-6,/,i,0.81,84
O=C(Cn1c2ccccc2c(=O)c2ccccc21)Nc1cccc(F)c1,52,152,3,12*,i,1,93
OC(COc1ccc2ccccc2c1Cl)CN1CCOCC1 (configuration not stated),-29,119,2,1.5,i,0.88,103
COc1cccc(N=Nc2c(N)[nH]n3c(=O)cc(-c4ccccc4)nc23)c1,/,/,-1,-1.4,i,1,94
C=CCn1c(CCNC(=O)c2cccs2)nnc1SCC(=O)c1ccc(Cl)cc1,-46,89,-1,-1.7,i,0.95,104
CCC(C)n1nccc1NC(=O)C(C)OC(=O)c1cc2ccccc2[nH]1 (configuration not stated),/,/,8,-2.9,i,0.96,92
CC1CN(C(=O)CSc2nc(-c3ccccc3)cs2)CC(C)O1 (configuration not stated),43,116,-6,-0.2,i,0.92,101
O=c1c2c([nH]c3ccccc13)CCCCC2,/,/,/,/,i,1.1,95
COc1ccc(-c2csc(NC(=O)CSc3n[nH]c(N)n3)n2)cc1,55,107,-8,/,i,1,92

# One compound at a time, as listed above. Screens in order: INS promoter inh | INS promoter inh cell count | PKD1 kinase inh | GALR2 agonist | HSV augment | HSV augment primary fold | RGS16-Gao HTS
# Shown for `CCC(C)n1nccc1NC(=O)C(C)OC(=O)c1cc2ccccc2[nH]1` (configuration not stated) = / | / | 8 | -2.9 | i | 0.96 | 92
# Shown for `O=C(Cn1c2ccccc2c(=O)c2ccccc21)Nc1cccc(F)c1` = 52 | 152 | 3 | 12* | i | 1 | 93
# Shown for `COc1ccc(-c2csc(NC(=O)CSc3n[nH]c(N)n3)n2)cc1` = 55 | 107 | -8 | / | i | 1 | 92
# Shown for `Cc1c([N+](=O)[O-])c(C(=O)Nc2ccc3c(c2)OCCO3)nn1C` = 40 | 108 | 1 | -2.9 | i | 0.93 | 98
# Shown for `C=C(C)CNC(=S)N/N=C/c1ccccc1OCC(=O)O` = 17 | 74 | 2 | / | i | 1 | 108

# Fetched one by one from the list above (two):
SMILES,INS promoter inh,INS promoter inh cell count,PKD1 kinase inh,GALR2 agonist,HSV augment,HSV augment primary fold,RGS16-Gao HTS
COc1cccc(N=Nc2c(N)[nH]n3c(=O)cc(-c4ccccc4)nc23)c1,/,/,-1,-1.4,i,1,94
CCC(C)n1nccc1NC(=O)C(C)OC(=O)c1cc2ccccc2[nH]1 (configuration not stated),/,/,8,-2.9,i,0.96,92

# Other compounds follow.
SMILES,INS promoter inh,INS promoter inh cell count,PKD1 kinase inh,GALR2 agonist,HSV augment,HSV augment primary fold,RGS16-Gao HTS
O=S(=O)(Nc1cccnc1)c1ccc(C2CCCCC2)cc1,8,104,-11,-0.6,i,0.96,98
C=C(C)C(=O)Nc1cccc(C2=NOC3(C2)C[C@@H](C(N)=O)N(C(=O)[C@H]2CCC(=O)N2)C3)c1 (some centres not stated),/,/,/,/,i,1,99
Nc1ccc(C2(c3ccc(N)cc3)C(=O)Nc3ccccc32)cc1,20,103,-15,-2.0,i,1.1,102
Cc1cc(C)c(NC(=S)N(Cc2cccnc2)Cc2ccco2)c(C)c1,14,150,-10,-0.7,i,1,102
O=C(CSc1nnc(-c2ccccc2Br)o1)Nc1nncs1,/,/,1,/,i,0.99,102
CCNC(=O)N1CCCC(C(=O)c2ccc(OC)c(OC)c2)C1 (configuration not stated),/,/,4,/,i,1.1,107
CC1CN(Cc2c(O)ccc3c2oc(=O)c2ccccc23)CC(C)O1 (configuration not stated),/,/,/,/,i,0.9,88
CCOc1ccc(C(=O)NCC(=O)OCc2c(C)noc2C)cc1OCC,/,/,2,/,i,1.1,99
COc1ccc(CCNC(=O)c2c(C)nc3ccccn23)cc1OC,/,/,-6,/,i,0.91,111
CCOP(=O)(OCC)C(NC(=O)Nc1ccccc1)C(N)=O (configuration not stated),-2,101,-2,-0.4,i,1.2,97
Cc1ccc(-n2c(Cc3cccs3)nnc2SCC(=O)OC(C)C)cc1,8,48,-1,-2.9,i,0.77,103
COC(=O)c1sccc1NC(=O)CSc1ccccc1N,-10,68,1,/,i,1,96
CCOC(=O)N1CCC2(CC1)C(C#N)=C(N)OC1=C2C(=O)CC(C)C1 (configuration not stated),44,92,-2,-0.6,i,0.93,102
C=CCNc1nc(Cl)ncc1F,/,/,-4,-0.1,i,0.93,97
COc1ccc(C2=NN(C(=O)CN3CCCCC3)C(c3ccc(C)cc3)C2)cc1 (configuration not stated),/,/,-1,/,i,0.8,100

# Copied from the list:
# Cc1cc(/C=C(/C#N)c2nc3ccccc3[nH]2)c(C)n1-c1cc(C(=O)O)cc(C(=O)O)c1 in RGS16-Gao HTS shows 101
# O=S(=O)(Nc1cccnc1)c1ccc(C2CCCCC2)cc1 in INS promoter inh shows 8
# CC(=O)N1CCN(c2cc3c(cc2F)c(=O)c(C(=O)O)cn3C2CC2)CC1 in RGS16-Gao HTS shows 84
# CCNC(=O)N1CCCC(C(=O)c2ccc(OC)c(OC)c2)C1 (configuration not stated) in PKD1 kinase inh shows 4

# The list continues.
SMILES,INS promoter inh,INS promoter inh cell count,PKD1 kinase inh,GALR2 agonist,HSV augment,HSV augment primary fold,RGS16-Gao HTS
COC(=O)c1sc(NC(=O)Cc2cccs2)nc1C,/,/,1,-1.5,i,0.96,134
CC(C)(C)N(Cc1ccccc1)C(=O)CSc1nnc(CNc2ccc(F)cc2)o1,18,84,-5,-0.9,i,1,88
COc1cc(S(=O)(=O)Nc2ccc(Br)cc2)ccc1N,/,/,-2,/,i,1,104
c1ccc(C2CC(c3cccs3)=NN2c2ccccc2)cc1 (configuration not stated),/,/,/,/,i,1.1,108
CCCCN1C(=O)c2ccc(C(=O)Nc3ccccc3N3CCOCC3)cc2C1=O,-13,59,2,/,i,0.9,97
COC(=O)CCCC1=CC2=CC(=O)C(C)(OC(=O)c3cccs3)C(=O)C2=CN1Cc1ccccc1 (configuration not stated),/,/,/,/,i,0.87,109
COCCN1Cc2cccc(C(=O)N3CCN(c4cc(C)ccc4C)CC3)c2C1=O,/,/,-5,-2.9,i,0.99,114
N#Cc1ccccc1NC(=O)CC1c2ccccc2Oc2ccccc21,/,/,-8,-2.1,i,0.88,103
O=C(O)C1CSC2(CCN(Cc3ccccc3)CC2)N1 (configuration not stated),50,167,-4,-2.2,i,0.95,120
CN(CCc1cn[nH]c1)Cc1nc(Cc2ccccc2F)no1,/,/,-10,/,i,1.1,98
O=C(Nc1cccs1)Nc1c(F)c(F)cc(F)c1F,23,102,-9,-2.0,i,1.1,95
O=C(Nc1cccc2ccccc12)C(=O)C1C(=O)Nc2ccccc21 (configuration not stated),/,/,/,/,i,0.98,91
COc1ccc(Cn2ccnc2CO)cc1[N+](=O)[O-],/,/,4,/,i,1.6,100
CCS(=O)(=O)c1ccc2c(c1)N(S(=O)(=O)c1ccccc1)CC(C(=O)O)O2 (configuration not stated),10,91,2,7.9,i,1.1,119
Cc1ccc(CC2S/C(=C(/C#N)C(=O)N3CCOCC3)N(c3ccccc3)C2=O)cc1 (configuration not stated),43,101,6,-0.1,i,1.1,102
CCn1ncc(-c2cc(C(=O)O)no2)c1C,-12,118,1,/,i,1.1,97
C/C(=N\NC(=O)c1ccccc1NC(=O)c1ccc(Cl)cc1)c1ccncc1,-82,35,4,/,i,1,108
C[N+]12CCCCC1C(COC(=O)c1ccc3c(c1)OCO3)CCC2 (configuration not stated),75*,48*,0,-0.4,/,/,104
O=c1c(Oc2ccccc2Br)c(C(F)(F)F)oc2c(CN3CCCC3)c(O)ccc12,-19,97,2,-1.7,i,0.94,102
CCOC(=O)C1=NN(c2ccc(C)cc2)C2(S1)SC(C(C)=O)=C(C)N2c1ccccc1 (configuration not stated),21,87,-9,0.5,i,0.95,97
CCn1c(SCC(=O)NNC(=O)c2ccc(OC)cc2)nnc1-c1ccco1,-26,105,-3,/,i,1,104
C#CCNC(=O)C1=C[C@H](C(C)(C)C)C[C@H](OCc2ccc(CO)cc2)O1,/,/,9,/,i,0.97,102
O=C(CCn1cnnn1)Nc1ccc(Cl)c(Cl)c1,-107,167,4,/,i,0.86,107
COc1ccc2nc(C)cc(SCC(=O)NNC(=O)COc3cccc4ccccc34)c2c1,17,105,-7,-0.1,i,0.94,104
CCOCCn1c(CN2CCN(CC)CC2)nc2c1c(=O)n(C)c(=O)n2C,-41,70,-9,-0.3,/,/,106
CC(Oc1ccc(-n2cnnn2)cc1)C(=O)O (configuration not stated),8,115,7,/,i,0.97,106
O=C(Nc1ccc2c(c1)CCC2)C1CCN(c2c3c(nc4ncnn24)CCC3)CC1,/,/,-1,0.1,i,0.77,97
COc1cccc(-c2nc(CS(=O)(=O)CC(=O)N3CCN(C4CCCCC4)CC3)c(C)o2)c1,/,/,6,-0.5,i,0.91,101
Cc1cccc(/C=N/NC(=O)c2cc3c(s2)-c2ccccc2CC3)c1,-23,95,-7,-0.9,i,0.85,95
CC(C)(C)c1cc(C(=O)O)c(CN2CCCCC2)o1,15,90,-1,-1.6,i,1,105
O=C(NCc1ccco1)C1CC(c2c(Cl)cccc2Cl)=NO1 (configuration not stated),16,57,-13,-0.5,i,0.99,104
CC(=O)c1cccc(NC(=O)N2CCCC(C(=O)c3cc(F)ccc3F)C2)c1 (configuration not stated),/,/,1,/,i,0.96,101
Cc1ccc(C(=O)NC(=S)Nc2ccc(Oc3ccc(Cl)cc3)cc2)cc1,-97,108,7,-1.6,i,1,104
COc1cc(/C=C/C(=O)OCC(=O)NC(=O)NC23CC4CC(CC(C4)C2)C3)ccc1OCC#N,-11,123,-2,-0.5,i,0.79,106
CCSc1nnc(NC(=O)C2CCN(S(=O)(=O)c3ccccc3C(F)(F)F)CC2)s1,30,165,-3,-0.2,i,0.89,101
CCN(c1ccccc1)S(=O)(=O)c1ccc(Cl)c(NC(=O)CN2C(=O)NC3(CCCC3)C2=O)c1,/,/,/,/,i,0.93,101
O=C1C(Cl)=C(NS(=O)(=O)c2ccc([N+](=O)[O-])cc2)C(=O)c2ccccc21,/,/,/,/,i,0.95,95
Cc1ccc(NC(=O)N(Cc2cccs2)Cc2cc3cc4c(cc3[nH]c2=O)OCO4)cc1,-15,125,0,-0.2,i,0.91,96
CCOc1cc(S(=O)(=O)NCC2OCCc3ccccc32)c(OCC)cc1-n1cnnn1 (configuration not stated),-15,110,3,-0.3,i,0.99,107
